From PubChem
A1 inh: inhibitors of the anti-apoptotic protein A1, read as caspase activation. AID 2462. actives 0.066% (n = 330,000). MEF A1-2A-BIM cells, Caspase-Glo 3/7 luminescence, 3 h; percent of clofoctol response, vehicle zero. caspase activation, % (no concentration beside the values);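 active = over half of replicate activation scores above 10%, or exactly half above 10 with the replicate mean above 10; inconclusive = replicate mean below 10 yet half the replicates above 10; inactive = over half of replicates below 10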;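 note: wells of about 30 µL received 50 nL stock; many hits fall short of the cut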
T cruzi repl: blocks replication of Trypanosoma cruzi | T. cruzi beta-gal in NIH3T3, luminescence, 90 h | inhibition, % (concentration not given with the values) | actives 1.4% (n = 300,000) | AID 1885;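 active = mean inhibition across valid replicates above about 55%, limit read from the data; inconclusive = mean below that limit but half or more replicates reach it; inactive = mean below it, under half of replicates reach it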;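 note: signal also drops with host cell toxicity which is not excluded here; 0% = plate median of DMSO wells and 100% = zero luminescence signal; higher percent means less beta-gal luminescence so fewer parasites; stock transfer was 50 nL into about 50 µL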
LANA-H2A inh: blocks KSHV LANA binding to histone H2A/H2B | inhibition, % (test concentration not listed) | Q9QR71 | actives 0.6% (n = 320,000) | cell-free LANA-H2A/H2B peptide, fluorescence polarization; in the data active = inhibition mostly above about 10%, no sharp cut-off; inactive = mostly below about 6.7%;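 note: stock transfer was 7.5 nL into about 10 µL; 0% = median of vehicle wells and 100% = median of positive control wells; one replicate is shown; the record names a cut of 25% in any replicate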
Target sequence (Q9QR71 whole entry, looked up): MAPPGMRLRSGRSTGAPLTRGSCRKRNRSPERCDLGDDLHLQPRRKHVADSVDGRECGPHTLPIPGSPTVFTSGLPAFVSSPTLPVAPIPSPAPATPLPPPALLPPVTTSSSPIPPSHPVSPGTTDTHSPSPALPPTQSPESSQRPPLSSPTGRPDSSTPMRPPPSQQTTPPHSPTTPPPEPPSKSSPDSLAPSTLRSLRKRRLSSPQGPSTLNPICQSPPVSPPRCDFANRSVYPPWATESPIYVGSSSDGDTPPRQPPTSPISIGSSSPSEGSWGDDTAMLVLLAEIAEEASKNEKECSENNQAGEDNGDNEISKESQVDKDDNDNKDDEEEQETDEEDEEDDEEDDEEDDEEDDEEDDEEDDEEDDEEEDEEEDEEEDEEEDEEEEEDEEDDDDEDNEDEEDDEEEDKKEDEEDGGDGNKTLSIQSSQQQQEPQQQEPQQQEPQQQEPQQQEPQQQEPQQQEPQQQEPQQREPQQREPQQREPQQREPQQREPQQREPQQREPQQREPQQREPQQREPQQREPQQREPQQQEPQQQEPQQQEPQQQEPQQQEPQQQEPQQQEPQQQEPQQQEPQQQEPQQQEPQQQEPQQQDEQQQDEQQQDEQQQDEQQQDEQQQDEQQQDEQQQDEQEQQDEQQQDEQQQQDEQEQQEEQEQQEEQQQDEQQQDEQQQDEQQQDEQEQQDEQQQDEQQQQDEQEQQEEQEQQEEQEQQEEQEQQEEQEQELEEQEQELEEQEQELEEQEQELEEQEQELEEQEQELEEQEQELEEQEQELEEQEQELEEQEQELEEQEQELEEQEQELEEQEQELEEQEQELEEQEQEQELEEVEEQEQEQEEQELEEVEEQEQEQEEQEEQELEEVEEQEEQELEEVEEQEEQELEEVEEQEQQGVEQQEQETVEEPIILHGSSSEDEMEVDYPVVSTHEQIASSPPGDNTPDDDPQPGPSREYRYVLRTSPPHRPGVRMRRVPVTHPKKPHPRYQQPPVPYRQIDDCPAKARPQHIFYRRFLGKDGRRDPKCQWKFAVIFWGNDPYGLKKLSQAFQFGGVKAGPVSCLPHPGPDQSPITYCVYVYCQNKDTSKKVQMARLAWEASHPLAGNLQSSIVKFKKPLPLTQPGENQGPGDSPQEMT
Calb FLC: C. albicans growth modulation with fluconazole. C. albicans CaCi-2 (fluconazole-resistant clinical isolate) + fluconazole, Alamar Blue growth, 48 h. growth inhibition, % (no concentration beside the values). actives 0.57% (n = 300,000). AID 1979;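 active = most replicates above 75%; inconclusive = exactly half above 75%; inactive = most below 75%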;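 note: all wells also contain fluconazole at 8 µg/ml as a sub-toxic cotreatment; 0% = median of DMSO wells and 100% = median of geldanamycin control wells; wells of about 8 µL received 7.5 nL stock; the first replicate is given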
Vif A3G: inhibitors of Vif binding to APOBEC3G peptide, primary screen, biochemical, TR-FRET, GST-Vif 1-94, biotin-A3G peptide, dose response retest (AID 1117319); actives 0.57% (n = 260,000); TR-FRET GST-Vif / biotin-A3G peptide binding; higher % means a stronger effect; test concentration not given here; strong numbers were not always called active; inhibition, %, or IC50 in µM where a hit was titrated;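 active = above the screen mean plus three standard deviations and confirmed in dose response; inconclusive = results disagree or hit not tested in dose response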;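 note: Vif residues 1-94 fused to GST binding biotinylated APOBEC3G peptide 110-148; 0% = full assay without inhibitor and 100% = GST in place of GST-Vif; retest series ran down from 100 µM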
RanGTP-Imp inh: inhibitors of RanGTP-importin-beta interaction, primary screen, biochemical, FRET, CFP-Ran, YFP-importin-beta, homogeneous; actives 1.1% (n = 300,000); AID 2216; cell-free CFP-Ran/YFP-importin-beta FRET ratio; inhibition, % (concentration not given with the values);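 active = most replicates above 15%; inconclusive = exactly half above 15%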;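 note: 0% = DMSO wells and 100% = Ran loaded with GDP instead of GTP; wells of about 40 µL received 100 nL stock; the first replicate is given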
Beta cell apopt: beta cell apoptosis inhibition; INS-1E cytokine-induced death, ATP luminescence, 48 h; percent of positive-control rescue, neutral wells zero; protection from apoptosis, % (test concentration not listed); actives 0.8% (n = 300,000); AID 435005;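 active = all replicates at 75% or more, or half of them and the mean; inconclusive = half reach 75% but not the mean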;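 note: 0% = cytokine-treated negative control wells and 100% = positive control rescue; higher means more ATP so stronger rescue from cytokine killing; wells of about 40 µL received 100 nL stock; the first replicate is given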
MLL AF4-AF9 inh: MLL-AF4/AF9 protein interaction inhibition | AID 651704 | actives 0.47% (n = 350,000) | AlphaScreen, biotin-AF4 peptide binding to FLAG-AF9 | inhibition, % at 10 µM;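 active = every replicate reaching a set inhibition limit, whatever the replicate mean, cut at about 25% in these data; inconclusive = mean inhibition reaches that limit but some replicates miss it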;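 note: 0% = plate neutral control median and 100% = total signal loss; the record names both 10 and 1 µM as test concentration; the first replicate is given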
* marks the source's active call; other numbers are inactive results; ? = inconclusive; · = not tested or not shown; & = joins results of further samples.

SMILES	A1 inh	T cruzi repl	LANA-H2A inh	Calb FLC	Vif A3G	RanGTP-Imp inh	Beta cell apopt	MLL AF4-AF9 inh
Cc1ccnc(SCC(=O)N2CCN(c3ccccc3)CC2)n1	0.1	-15	-0.9	-6	?	-0.6	-9	·
CCOc1ccc(/C=N/n2c(C3CCCCC3)n[nH]c2=S)cc1	0.1	2	-3.3	13	-3%	5.3	-1	2.3
CCc1ccc(NC(=O)CNC(=O)c2cn(-c3ccccc3OC)c(=O)c3ccccc23)cc1	0.0	-5	-0.4	12	-5%	7.2	3	·
CC(C)Oc1ccc(C(=O)Nc2ccc([N+](=O)[O-])cc2)cc1	-6.9	12	0.6	-4	10%	2.1	30	-0.8
CCOC(=O)C1(CCCc2ccccc2)CCN(C(=O)c2cnc(C)cn2)CC1	-0.7	5	9.0	?	8%	-2.0	-2	-0.1
CC(=O)Nc1ccccc1OCC(=O)NCCC1=CCCCC1	0.1	-7	7.7	-13	-9%	5.0	-7	-0.7
O=C(N/N=C1\CCCc2ccccc21)c1cccc([N+](=O)[O-])c1	-0.5	-4	-1.6	2	3%	3.9	8	-67
CC[C@H](C)[C@H](NC(N)=O)C(=O)Nc1ccc(C)cc1	0.0	-6	-5.6	-11	·	-4.9	0	3.8
CN(CC(=O)Nc1ccc(N2CCOCC2)cc1)C(=O)CCNC(=O)c1ccc(Br)cc1	-0.2	-8	0.1	0	·	2.6	·	-3.7
COCCCNC(=S)N1CCC(C(=O)c2ccc3c(c2)OCCO3)CC1	1.2	6	3.2	-5	4%	7.0	1	1.4
O=C(COC(=O)C1CCN(S(=O)(=O)c2cccs2)CC1)Nc1ccc(F)cc1F	0.6	-2	0.1	-5	10%	-9.9	-1	1.2
O=C(NCc1cccnc1)C1CCCN(S(=O)(=O)c2cccc3nsnc23)C1 (stereo not given)	?	4	3.2	-12	0%	-0.9	-11	-109
CN1CCCN(S(=O)(=O)c2cccc(C(F)(F)F)c2)c2nc3ccccc3nc21	0.2	·	-3.1	·	7%	·	2	-7.5
COc1ccccc1-n1c(-c2cn(C)nc2C)n[nH]c1=S	-0.5	1	2.7	11	-1%	3.6	·	·
S=C(Nc1ccccn1)Nc1ccccc1Cl	0.2	-23	-3.4	-15	-1%	-4.1	5	0.2
NC(=O)c1nn(-c2ccc(Cl)cc2Cl)c(=O)cc1O	0.2	-10	6.8	-16	9%	0.6	-4	-2.5
CC(=O)c1ccc(Nc2c3c(nc4ccccc24)CCCC3)cc1	0.0	-1	-1.0	0	-15%	5.8	13	-4.7
COc1ccc2[nH]c3nc(SCC(=O)Nc4ccc5c(c4)OCO5)nnc3c2c1	-1.0	11	-1.2	-6	0%	-0.5	1	·
CCNS(=O)(=O)c1ccc(CCC(=O)NCc2cccnc2)cc1	1.2	1	-1.7	4	·	?	-4	-2.4
CCc1c(C)nc2ncnn2c1Nc1ccc(C#N)c(Cl)c1	-0.4	-10	2.6	-5	0%	1.5	7	·
O=C(OCc1ccccc1)C1CCCN1C(=O)c1ccccc1[N+](=O)[O-] (stereo not given)	0.4	-19	2.0	-7	0%	11	0	·
CCOC(=O)C1=C(C)N=C2SC(CC)C(=O)N2C1c1cccc(F)c1 (stereo not given)	-0.6	1	3.9	-1	-3%	-0.6	2	·
O=C(O)c1ccc(Nc2nc3ccccc3nc2NS(=O)(=O)c2cccs2)cc1	1.1	-11	7.9	11	·	4.8	2	0.4
COc1cc(C(O)P(=O)(OCC(C)C)OCC(C)C)cc(OC)c1OC (stereo not given)	0.8	5	-1.8	2	64%	3.7	-7	·
O=C(/C=C/c1ccccc1)N1c2ccccc2Sc2ccc(C(F)(F)F)cc21	-0.1	38	-2.0	3	·	2.6	1	·
Cc1cc(C)cc(OCC(=O)Nc2ccc3c(c2)OCCO3)c1	0.4	6	1.5	-25	-4%	4.3	-4	-1.6
COC(=O)c1ccccc1NC(=O)C/C(C)=N/NC(=O)CC#N	-1.6	-23	-3.6	34	-7%	3.7	-1	-1.2
Cc1ccc(-c2nnc(COc3cccc(-n4cnnn4)c3)o2)cc1	-0.3	-1	1.1	7	5%	-0.8	-1	·
CC(=O)Nc1cccc(OCCCNC(=O)c2ccc(F)cc2)c1	-0.6	4	-0.7	-2	10%	2.4	-6	-1.9
O=C(Cn1ccc(=O)[nH]c1=O)NCCO	-0.5	-10	1.6	-6	2%	4.1	-5	1.1
COc1cc(C2=NOC(C(=O)Nc3cccnc3)C2)cc(OC)c1OC (stereo not given)	0.0	13	-5.4	0	2%	-2.4	5	-0.4
CC(=O)c1c(C)[nH]c(C(=O)Nc2cccc(S(=O)(=O)N3CCCCC3)c2)c1C	-0.5	·	·	·	-20%	·	-1	8.8
O=C(Nc1ccc(Cl)cc1C(=O)N1CCOCC1)c1cccc([N+](=O)[O-])c1	1.3	-6	0.7	-3	-5%	1.0	5	-3.5
CCOc1ccc(-c2nnc(NC(=O)C3CCCC3)o2)cc1	1.6	-8	-0.9	-13	·	0.3	-1	-4.0
COC(=O)c1cccc(NC(=O)CN2CCOCC2)c1	1.2	-14	-1.1	-21	-2%	-2.6	-8	·
COc1ccccc1Nc1nc(N)nc(CSC(=S)N2CCOCC2)n1	0.4	-4	1.0	-24	-3%	0.8	-4	·
C[C@H]1CN([C@@H](C)CO)C(=O)c2cccc(NC(=O)Nc3ccc(C(F)(F)F)cc3)c2O[C@@H]1CN(C)Cc1ccc(Cl)c(Cl)c1	-1.2	·	6.4	·	·	·	23	0.4&-11
CN1CCN(c2nc(-c3ccccc3)cc(C(F)(F)F)n2)CC1	0.6	27	-6.0	-28	3%	-3.2	2	·
CCOC(=O)Nc1ccc2c(c1)ncn2C1CCCCC1	0.3	10	-0.6	-19	3%	-1.5	4	·
NS(=O)(=O)c1ccc(CCNS(=O)(=O)c2ccc(Cl)nc2)cc1	0.3	-17	-2.4	2	·	6.2	-2	-1.1
COc1cc(CO)ccc1Oc1nc2ccccc2n2cnnc12	0.0	-11	-3.8	2	25%	4.1	·	3.3
O=C(O)CCCCCN1C(=O)/C(=C\c2ccc(-c3ccc(Cl)cc3)o2)SC1=S	1.2	-7	-3.2	-4	?	-0.3	2	-3.2
O=C(OCCN1C(=O)c2ccccc2C1=O)C1CC(O)CN1S(=O)(=O)c1ccc(Cl)cc1 (stereo not given)	-0.8	·	3.6	·	·	·	-2	-5.5
OC(COCC1COc2ccccc2O1)CN1CCc2ccccc2C1 (stereo not given)	0.1	9	-3.0	-14	4%	1.3	-4	·
COc1cccc(C(=O)OC2CCCN(C)C2)c1 (stereo not given)	0.7	-16	-9.4	-1	21%	-1.5	-3	·
CC1CCN(C(=S)NC(=O)c2ccc(F)cc2)CC1	0.2	·	0.7	·	-3%	·	-7	-0.4
O=C(NCCc1ccccc1)c1nc2ncccn2n1	-0.1	-10	4.8	-11	9%	-2.2	1	·
COc1ccc(C2=NOC(C)(c3nnc(Cc4ccccc4)o3)C2)cc1 (stereo not given)	1.9	-4	2.0	-8	·	4.2	0	-3.0
CC1CCc2c(sc3ncnc(NS(=O)(=O)c4cccs4)c23)C1 (stereo not given)	0.5	5	3.5	1	16%	?	·	-3.6
COCCSc1nnc(NC(=O)C2CC(=O)N(c3ccc(OC)cc3)C2)s1 (stereo not given)	0.1	-10	-2.7	-15	6%	-0.9	-2	-3.2
Other compounds
SMILES	A1 inh	T cruzi repl	LANA-H2A inh	Calb FLC	Vif A3G	RanGTP-Imp inh	Beta cell apopt	MLL AF4-AF9 inh
Cc1cc(/C=C(\C#N)C(=O)Nc2ccccc2F)c(C)[nH]1	-3.0	-7	0.2	-22	1%	-0.9	·	-0.1
O=C(NC(=O)c1ccc(Cl)c(Cl)c1)OC1CCS(=O)(=O)C1 (stereo not given)	-0.2	-5	0.6	-2	-6%	0.8	1	·
Cc1ccc(-c2nn[nH]n2)cc1Cl	-1.1	-19	-0.2	-3	10%	1.5	5	-0.3
CCCc1nc(SCC(=O)N2CCOCC2)c2c(C)c(C)sc2n1	-0.3	24	-7.0	-4	·	-1.1	3	-3.5
COc1ccccc1C1CC(c2ccc(C)cc2)Nc2ncnn21 (stereo not given)	0.4	14	-1.0	28	6%	3.8	-2	·
Cc1ccc(S(=O)(=O)N(CC(=O)NCc2ccccc2Cl)C(=O)N2CCN(C)CC2)cc1	-0.7	-9	-3.5	0	5%	0.4	·	0.2
O=C(/C=C/c1ccc(O)c(O)c1)c1ccc(S(=O)(=O)N2CCCCCC2)cc1	0.8	-1	1.4	-12	2.3µM*	1.2	5	-3.1
O=C(NNc1c(Cl)cccc1Cl)c1sccc1Cl	0.1	29	1.4	-2	·	-4.1	-3	-2.3
COC(=O)/C(C#N)=C1/C=Cc2ccccc2N1	-2.6	-9	2.6	11	2%	9.7	6	-4.7
CN(Cc1ccccc1)S(=O)(=O)CCNC(=O)c1ccc2c(c1)OCO2	0.0	-6	-2.8	-1	-4%	1.7	·	0.5
Cc1ccc(NC(=O)C2CCCN(S(=O)(=O)c3c(C)noc3/C=C/N(C)C)C2)cc1F (stereo not given)	1.0	·	0.0	·	11%	·	·	-2.9
Cc1ccc(S(=O)(=O)NCc2nnc(SCC(=O)Nc3cccc(C)c3C)n2C)cc1	0.4	-7	-2.7	-26	-1%	4.2	-8	8.9
Cn1c(/C(C#N)=C(\O)c2ccc(Br)s2)nc2ccccc21	-0.8	-51	-6.9	-1	·	-0.3	0	-14
O=C(CN1CCCC1)Nc1ccc([N+](=O)[O-])cc1Cl	0.2	-6	0.4	-10	0%	?	-10	1.2
CCCCn1c(N)c(N(CCOC)C(=O)c2ccc(N3C(=O)CCC3=O)cc2)c(=O)[nH]c1=O	0.4	-7	-1.5	9	-7%	0.6	-5	-2.1
Cc1cccc2sc(NC(=O)c3cc(S(=O)(=O)N(C)C)ccc3N3CCCC3)nc12	0.5	39	-3.7	26	12%	9.9	-13	2.4
COC(=O)c1ccccc1NC(=O)N1c2ccccc2CC1C (stereo not given)	0.4	-7	0.9	11	2%	5.7	8	·
COc1ccccc1N1C(=NC(=O)CCC2CCCC2)SC2CS(=O)(=O)CC21 (stereo not given)	-0.6	5	-5.4	3	·	2.4	-5	-4.3
CN(C)C(=O)CN1C(=O)C2CCCCN2C(=O)c2ccccc21 (stereo not given)	0.3	-30	1.2	3	7%	0.8	-3	·
CC1C(C#N)=C(N)OC2=C1C(=O)CC(C)(C)C2 (stereo not given)	1.2	-15	-1.3	-2	15%	2.7	·	·
CCOC(=O)c1ccc(N2C(=O)c3n[nH]c(C)c3C2c2ccccc2)cc1 (stereo not given)	-0.7	4	-2.9	6	8%	-2.7	4	·
CC(=O)Nc1ccc(NC(=O)C(C)OC(=O)C2CCN(S(=O)(=O)c3ccc4c(c3)OCCO4)CC2)cc1 (stereo not given)	?	-6	-2.6	-6	·	-1.9	-8	-2.5
O=c1c2ccccc2nc(CSc2nnnn2-c2ccccc2)n1-c1cccc(C(F)(F)F)c1	-0.3	5	-3.6	?	2%	-1.5	-4	·
